PABP FP inh – blocks human PABP binding to poly(A) RNA; 290,000 compounds, 1% hits; P11940; inhibition, % at 35 µM; fluorescence polarization;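 active = 50% or more with normal probe brightness, or confirmed in later tests; inconclusive = above 50% with abnormal brightness, or retests that disagree; inactive = below 50% or failed in later tests; about a fifth of its hits are not listed in these tables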;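 note: calls also rest on retests at 20 µM and on dose response follow-up; controls were probe without protein and protein plus probe with vehicle; some compounds called inactive have numbers as strong as hits; many hits fall short of the cut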
Target sequence (P11940 whole entry, looked up): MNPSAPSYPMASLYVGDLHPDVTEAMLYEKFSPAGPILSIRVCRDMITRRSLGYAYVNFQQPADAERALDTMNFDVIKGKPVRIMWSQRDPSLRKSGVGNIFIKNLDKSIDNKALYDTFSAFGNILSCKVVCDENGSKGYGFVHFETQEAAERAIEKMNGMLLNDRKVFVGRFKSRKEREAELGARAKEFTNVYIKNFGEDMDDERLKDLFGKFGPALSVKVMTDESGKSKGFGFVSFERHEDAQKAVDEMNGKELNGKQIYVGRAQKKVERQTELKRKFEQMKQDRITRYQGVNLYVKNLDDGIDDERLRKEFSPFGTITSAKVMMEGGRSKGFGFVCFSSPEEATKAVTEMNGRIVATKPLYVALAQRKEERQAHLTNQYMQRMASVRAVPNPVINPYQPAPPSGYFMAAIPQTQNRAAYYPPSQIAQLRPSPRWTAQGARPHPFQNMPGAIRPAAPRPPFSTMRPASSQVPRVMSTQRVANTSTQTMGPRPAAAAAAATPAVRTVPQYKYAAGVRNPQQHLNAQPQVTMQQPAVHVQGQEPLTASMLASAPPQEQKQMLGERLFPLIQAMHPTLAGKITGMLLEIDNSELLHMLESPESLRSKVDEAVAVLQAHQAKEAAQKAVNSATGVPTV
CSC inhib – blocks cancer stem cells; cancer stem cell-like cells viability, luminescence; inhibition, % at 7.5 µM; AID 2717; 300,000 compounds, 1.1% hits;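 active = mean at 75% or more and at least half the replicates too; inconclusive = mean and replicates disagree; tested in HMLE shEcad cells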;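 note: 0% = median of negative and 100% = median of positive control wells; the first replicate is given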
eIF4H inh – inhibitors of RNA binding by human eIF4H | 290,000 compounds, 0.94% hits | inhibition, % at 35 µM | eIF4H fluorescence polarization binding assay | AID 2012;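 active = 50% or more with normal probe brightness, or confirmed in later tests; inconclusive = above 50% with abnormal brightness, or retests that disagree; inactive = below 50% or failed in later tests; about a fifth of its hits are not listed in these tables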;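 note: calls also rest on retests at 20 µM and on dose response follow-up; 0% = protein and probe with vehicle and 100% = probe without protein; strong numbers were not always called active; many hits fall short of the cut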
Env fusion inh – HIV envelope-mediated fusion inhibition. HeLa-JRFL Env/CEM21 cell fusion, luciferase. inhibition, % at 12.3 µM. 360,000 compounds, 1.1% hits. AID 651610;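 active = mean replicate inhibition score of at least 50 and every replicate individually at or above 50; inconclusive = only one of the two criteria met; inactive = mean below 50 and not all replicates reaching 50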;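 note: 0% = plate neutral controls and 100% = maraviroc near 300 nM; one replicate is shown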
UUG fidelity – alters start codon recognition fidelity in yeast; S. cerevisiae UUG-firefly luciferase reporter, luminescence/redox ratio; activity score, % at 18.7 µM; 350,000 compounds, 0.13% hits; AID 602363;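 active = replicate mean at a twofold rise or more, about +100% in these data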;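 note: firefly luciferase made from a UUG start codon reports start codon fidelity; reporter light over untreated wells divided by growth signal over untreated wells; some hits fall short of that in this replicate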
MT1-MMP act inh – inhibitors of human MT1-MMP activation. P50281. HT1080 RFP-PRO-GFP cells, GFP/RFP ratio fluorescence, overnight; percent of plate control window, DMSO zero. GFP/RFP ratio change, % at 20 µM. 360,000 compounds, 0.061% hits;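 active = GFP/RFP ratio change of at least 30% with cell ATP level not reduced by more than half and red fluorescence within 50% of control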; note: strong numbers were not always called active
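Test system: HT1080 RFP-PRO-GFP cells; Benchmarks: DMSO and RFP-L50D-GFP cell wells; Timing: cells overnight before dosing, compound overnight, 37 °C, 5% CO2; Compound: one 20 µM compound dose with 1% DMSO; Read-out: GFP/RFP fluorescence ratio.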
Rce1 inhib – yeast Ras-converting enzyme inhibition; Q03530; yeast membranes, quenched prenylated peptide cleavage fluorescence; calls only; 290,000 compounds, 0.27% hits;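 active = fall in fluorescence gain of 50% or more versus controls, with final raw signal at or below 3038400; inconclusive = same 50% fall but final raw signal above 3038400; inactive = fall in fluorescence gain under 50%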;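 note: plate controls were neutral control wells for no effect and wells lacking membranes for full effect; tested at 10 µM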
Target sequence (Q03530 whole entry, looked up): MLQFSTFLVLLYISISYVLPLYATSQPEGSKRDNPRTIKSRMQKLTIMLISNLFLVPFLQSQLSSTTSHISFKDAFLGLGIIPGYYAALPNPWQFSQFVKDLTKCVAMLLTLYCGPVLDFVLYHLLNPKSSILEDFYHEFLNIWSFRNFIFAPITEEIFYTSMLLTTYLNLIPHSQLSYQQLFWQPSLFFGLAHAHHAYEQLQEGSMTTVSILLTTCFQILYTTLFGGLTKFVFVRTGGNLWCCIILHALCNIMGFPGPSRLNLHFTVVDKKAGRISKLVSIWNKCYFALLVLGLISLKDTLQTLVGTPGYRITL
eIF4H inh retest – further read-out of eIF4H inh, marked with its call; inhibition, %; compound at 20 µM; confirmation average;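 mean of two retest wells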
PABP FP inh retest – second read-out of PABP FP inh, no call of its own (marks repeat the call); inhibition, %; compound at 20 µM; confirmation repeats;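 mean of two retest wells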
MT1-MMP act inh RFP – recorded beside MT1-MMP act inh, whose call it bears; RFP signal change, %; measured here: RFP expression control read;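 0 = vehicle wells; hits needed this value within 50% of zero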
Active calls of the source: *; i = inactive; ? = inconclusive; / = not tested or not shown. A portion of the library. The share of hits here may be higher or lower than overall.

The opening 7 compounds as a preview:
SMILES	PABP FP inh	CSC inhib	eIF4H inh	Env fusion inh	UUG fidelity	MT1-MMP act inh	MT1-MMP act inh RFP	Rce1 inhib	others
CC1CC(=O)Nc2ccc([N+](=O)[O-])cc2N1C (centres undefined)	-4	4	-4	-7	/	3	-2	i
CSc1nsc(SC)c1NC(=O)N1CCCC1	-13	-1	8	-54	-23	3	4	i
COc1ccc(N2C(=O)C3C4c5ccccc5C(C=Nc5ccc(C)cc5C)(c5ccccc54)C3C2=O)cc1 (centres undefined)	/	6	/	-45	2	-6	-6	/
NC(=O)CSc1ncnc2c1oc1ccccc12	9	-8	-5	?	-13	-1	4	i
O=C(NCc1cccc(Cl)c1)C1CCCN(c2ncnc3c2nc2n3CCCCC2)C1 (centres undefined)	-10	-8	-7	1	-4	0	-4	i
Cn1ccnc1SCC(=O)n1c2c(c3ccccc31)CCCC2	-7	0	0	-37	-24	-2	1	i
COc1cc(C(=O)OCC(=O)NCc2ccccc2)cc(NC(=O)c2ccco2)c1OC	4	-5	5	/	-10	2	3	i

Results, from the first entry:
SMILES	PABP FP inh	CSC inhib	eIF4H inh	Env fusion inh	UUG fidelity	MT1-MMP act inh	MT1-MMP act inh RFP	Rce1 inhib	others
CC1CC(=O)Nc2ccc([N+](=O)[O-])cc2N1C (centres undefined)	-4	4	-4	-7	/	3	-2	i
CSc1nsc(SC)c1NC(=O)N1CCCC1	-13	-1	8	-54	-23	3	4	i
COc1ccc(N2C(=O)C3C4c5ccccc5C(C=Nc5ccc(C)cc5C)(c5ccccc54)C3C2=O)cc1 (centres undefined)	/	6	/	-45	2	-6	-6	/
NC(=O)CSc1ncnc2c1oc1ccccc12	9	-8	-5	?	-13	-1	4	i
O=C(NCc1cccc(Cl)c1)C1CCCN(c2ncnc3c2nc2n3CCCCC2)C1 (centres undefined)	-10	-8	-7	1	-4	0	-4	i
Cn1ccnc1SCC(=O)n1c2c(c3ccccc31)CCCC2	-7	0	0	-37	-24	-2	1	i
COc1cc(C(=O)OCC(=O)NCc2ccccc2)cc(NC(=O)c2ccco2)c1OC	4	-5	5	/	-10	2	3	i
COc1cc2c(cc1OC)C(CC(=O)O)N(C(=O)CC1CCCC1)CC2 (centres undefined)	5	-37	-3	-21	0	3	0	i
Cc1cc(C)c2nc3nc(C)cc(C)c3c(N)c2c1	7	28	-1	-121	33	-11	-1	i
O=C(NNC1CC(=O)N(c2cccc(Cl)c2)C1=O)c1cccnc1 (centres undefined)	1	-19	4	-6	/	-1	1	i
O=S(=O)([N-]c1nc2ccccc2nc1-[n+]1ccccc1)c1ccc(F)cc1	5	/	3	17	/	-5	3	i
Clc1ccc(Cc2nc(-c3ccncc3)no2)cc1	-12	0	-12	1	/	5	2	i
CCOC(=O)c1c(-c2ccccc2)oc2ccc(O)c(CN(C)C)c12	-8	-4	-2	9	-3	-4	-2	i
COc1ccc(S(=O)(=O)N(CC(=O)N2CCN(C)CC2)c2ccc(C)cc2)cc1Br	-1	/	-15	-8	-5	-3	1	i
CC1(C)N=C(c2ccccc2)C(=O)N1	-5	-2	5	-43	-19	-3	3	/
Nc1nonc1-n1nnc(C(=O)N/N=C/c2cccc(O)c2)c1CN1CCCC1	-6	-1	-12	0	-7	2	4	i
COc1ccc(OC)c(NC(=S)NCc2ccccc2OC)c1	0	-8	9	10	-22	3	1	i
CC(C)[C@H](NC(=O)c1ccccc1Cl)C(=O)NC1CCCCCC1	-8	-16	-2	6	-9	-1	-3	i
O=C(COC(=O)c1cccc(C(=O)OCC(=O)NCc2ccc(F)cc2)n1)NCc1ccc(F)cc1	-5	-20	2	-7	/	-2	-4	i
Cc1c(C)c(C)c(C(=O)c2ccc(NC(=O)c3ccccc3C(=O)O)cc2)c(C)c1C	5	-5	-3	-16	-24	6	0	i
Cc1c(C(=O)N2CCN(c3ccccc3)CC2)sc2ncnc(N3CCN(c4ccccn4)CC3)c12	6	-5	-2	11	12	6	-5	i
COC(=O)C(C)NC(=O)COc1ccc2ccccc2c1 (centres undefined)	37	-20	-12	-6	/	0	0	i
Cc1ccc(Cn2ccsc2=NC(=O)COC(=O)c2ccc(NC(=O)CC#N)cc2)cc1	/	/	/	31	/	-9	-26	i
Nc1ncncc1-c1ccc([N+](=O)[O-])cc1	32	3	52	/	0	8	-9	i	eIF4H inh retest=8;PABP FP inh retest=-2
COc1cc(CN2CCNC(=O)C2CC(=O)O)cc(OC)c1 (centres undefined)	-4	-5	0	-5	-16	0	6	i
COC(=O)c1ccccc1S(=O)(=O)N1CCC(C(=O)NCCC2=CCCCC2)CC1	/	-14	/	/	-1	1	-2	/
Cc1ccc(NC(=S)/C(=C(\[O-])c2ccc(Cl)s2)[n+]2cccc(CO)c2)cc1C	9	37	2	15	-17	0	7	i
Cc1ccc(NC(=O)c2ccc(=O)[nH]n2)cc1C	2	1	-6	-4	-11	-1	2	i
CCOC(=O)N1CCN(S(=O)(=O)N2CCCC(C(=O)NCc3cc(Br)ccc3OC)C2)CC1 (centres undefined)	/	/	/	-3	-4	-2	-10	/
COc1cc(NC(=O)CCN2CCN(c3ccccc3F)CC2)cc(OC)c1	-5	-7	-4	7	-16	-1	3	i
CNC(=O)CN(c1cc(OCCOC)c(Cl)cc1Cl)S(=O)(=O)c1ccc(OC)cc1	18	6	3	3	/	-3	0	i
O=C(/C=C/c1ccc(Cl)cc1)NCCc1ccccc1	-3	-9	2	-14	1	4	0	i
CCOc1ccc(NC(=O)CCC(=O)NNC(=O)COc2ccccc2C)cc1	-4	-10	-11	9	/	2	5	i
CSc1nc2ccc(NC(=O)C3CCCO3)cc2s1 (centres undefined)	-1	/	5	-51	-12	0	-1	i
Cn1c(=O)cc(OCC(=O)NCCc2ccc(Cl)cc2)c2ccccc21	29	-11	2	3	-5	3	3	i
CCCOC(=O)c1c(NC(=O)CCC(=O)O)sc2c1CCCCC2	-2	-2	-2	-17	/	3	3	i
CCCC1NC(C(=O)O)Cc2c1[nH]c1ccccc21 (centres undefined)	34	-9	82	9	-7	-3	0	i	eIF4H inh retest=21;PABP FP inh retest=39
CCc1nnc(NC(=O)c2ccc(Br)o2)s1	-5	-7	0	-39	-18	1	0	i
CNCCC=C1c2ccccc2C=Cc2ccccc21	/	-8	/	12	-7	-6	-1	/
O=C(O)C1C2CCC(O2)C1C(=O)Nc1ccc(F)cc1 (centres undefined)	10	0	3	6	/	6	8	i
CC1(Cc2ccccc2OC(F)(F)F)C(=O)Nc2cc(-c3ccccc3Cl)ccc21 (centres undefined)	/	/	/	56*	-19	-14	-16	/
Cc1ccc(CNn2cnnc2SCC(=O)NC(C)(C)C)cc1	-4	7	-4	14	-26	4	3	i
CC(=O)Oc1ccc2c(C)cc(=O)oc2c1C(=O)c1ccccc1	-13	11	1	6	0	-3	6	i
O=C(O/N=C1\CCS(=O)(=O)c2sccc21)c1ccc(F)cc1	3	-2	31	10	-18	5	6	i
NC(=S)n1[nH]c(-c2ccc([N+](=O)[O-])cc2)c(N=Nc2ccc(Cl)cc2)c1=O	6.3*	/	?	/	/	-16	-37	/	PABP FP inh retest=94*
CC(C)N1C(=O)CCC1C(=O)NCCc1ccccc1 (centres undefined)	0	-4	3	12	-16	-8	0	i
O=S(=O)(Nc1ccc(O)c(Sc2nc3ccccc3s2)c1)c1ccc(F)cc1	-8	-2	7	15	/	3	-1	i
Cn1c(=O)n(C)c2cc(C(N)=O)ccc21	-2	-2	-4	/	-16	5	0	i
NC(=O)c1cc[n+](Cc2ccc([N+](=O)[O-])cc2)cc1	7	-11	-1	-5	-18	-1	-1	i
COC(=O)c1ccc(NC(=O)CN2CCN(CCO)CC2)cc1	-3	-9	2	-3	-13	-2	2	/

Entries from the list above with an NH in an aromatic ring, in the order listed:
SMILES	PABP FP inh	CSC inhib	eIF4H inh	Env fusion inh	UUG fidelity	MT1-MMP act inh	MT1-MMP act inh RFP	Rce1 inhib	others
Cc1ccc(NC(=O)c2ccc(=O)[nH]n2)cc1C	2	1	-6	-4	-11	-1	2	i
CCCC1NC(C(=O)O)Cc2c1[nH]c1ccccc21 (centres undefined)	34	-9	82	9	-7	-3	0	i	eIF4H inh retest=21;PABP FP inh retest=39
NC(=S)n1[nH]c(-c2ccc([N+](=O)[O-])cc2)c(N=Nc2ccc(Cl)cc2)c1=O	6.3*	/	?	/	/	-16	-37	/	PABP FP inh retest=94*

More structures.
SMILES	PABP FP inh	CSC inhib	eIF4H inh	Env fusion inh	UUG fidelity	MT1-MMP act inh	MT1-MMP act inh RFP	Rce1 inhib	others
O=C(NCC1CCCO1)C1CCCN(S(=O)(=O)c2ccc(Br)cc2)C1 (centres undefined)	-1	-13	1	8	-2	0	1	i
COc1cc(S(=O)(=O)N2CCOCC2)ccc1NC(=O)COC(=O)c1ccc(Cl)nc1	/	12	/	-2	11	2	2	/
C/C(=N\NC(=O)c1ccccn1)c1ccc(C(=O)O)s1	-6	-1	-11	-1	/	/	/	i
CCOC(=O)N1CCC(N2Cc3cccc(C(=O)O)c3C2=O)CC1	-4	2	7	35	1	-2	4	i
CCN(CC)C(=O)CSc1nnc(-c2ccccn2)n1Cc1ccccc1	-12	-9	-7	13	-18	-1	-3	i
Cc1cc(Cl)c(S(=O)(=O)N2CCCCCC2)cc1OCC(N)=O	-4	-1	0	-19	-4	-6	-2	/
O=C(COC(=O)c1cc(S(=O)(=O)N2CCOCC2)ccc1O)Nc1ccc2c(c1)OCO2	/	-1	/	/	-14	-1	2	/

From PubChem
